# Compound activity from PubChem BioAssay.
# VACV mCherry inh: qHTS for Stage-Specific Inhibitors of Vaccinia Orthopoxvirus: mCherry Reporter Primary qHTS | AID 720579, 2013 | Vaccinia virus mCherry reporter infection, fluorescence; about a quarter of the inactives have no number | 310,000 compounds, 0.63% hits | Potency, µM (top dose mostly 36.5 µM), without a hit: at the top dose activity change, negative = inhibition, most hits filed as inhibitors; active = well fitted inhibition curve with a large enough effect; inconclusive = small, poorly fitted or top-dose-only effect; inactive = no such curve, though single readings can be large or run the other way; tested in A549 cells; further: nearly all actives have a fitted effect of over 35% in size; inactives centre near -10
# VACV Venus inh: qHTS for Stage-Specific Inhibitors of Vaccinia Orthopoxvirus: Venus Reporter Primary qHTS; Vaccinia virus Venus reporter expression, fluorescence; Potency, µM (titrated, usually from 36.5 µM), for the others: at the highest dose activity change, negative = inhibition, most hits filed as inhibitors; 330,000 compounds, 0.46% hits; AID 720580, 2013; active means well fitted inhibition curve with a large enough effect; inconclusive means small, poorly fitted or top-dose-only effect; inactive means no such curve, though single readings can be large or run the other way; tested in A549 cells; further: nearly all actives have a fitted effect of over 30% in size; inactives centre near -10
# The depositor's hits bear a star; i = inactive; u = inconclusive; x = no result given; & = joins results of further samples; [ ] = dose if it differs, or a comment. On the % scale 0 is the no-effect control and ±100 the full control effect; potency means the concentration at half of the fitted maximal effect.
SMILES,VACV mCherry inh,VACV Venus inh
CCN(C(=O)CSc1nc2ccccc2n1CC(=O)NCc1ccc(OC)cc1)c1ccccc1,-6.2%,-18.7%
Cc1ccc2c(c1)C(SCC(=O)NCCc1ccccc1)CC1(CCCC1)O2 (stereo not drawn),-3.9%,3.5%
NC(=S)NNC(=S)Nc1ccccc1,-11.3%,-12.8%
C=CCN(c1cccc(C(F)(F)F)c1)S(=O)(=O)c1cccc(C(=O)OCC(=O)NCCC)c1,-1.5%,-2.4%
COc1ccccc1C(NC(=O)C1CCN(CCOc2ccc(Cl)cc2)CC1)c1ccccn1 (stereo not drawn),8.2%,-23.1%
COC(=O)c1cc2oc3ccccc3c2n1CC(=O)Nc1ccc(C)c(F)c1,-16.4%,-12.5%
C=CCn1c(SCC(=O)C23CC4CC(CC(C4)C2)C3)nc(O)cc1=O,-9.5%,-0.9%
COc1ccc(S(=O)(=O)N2CCCC2C(=O)Nc2nnc(-c3cccnc3)s2)cc1 (stereo not drawn),i,-10.5%
COc1ccc(OC)c(C(C(=O)NC2CCCCC2)N(C(=O)c2snc(C(N)=O)c2N)c2ccccc2OC)c1 (stereo not drawn),-8.0%,-0.4%
CC(C)c1ccccc1OCC(=O)Nc1nnc(C2CC2)s1,i,-12.7%
COc1ccccc1C(=O)N1CCCCC1CCN1CCOCC1 (stereo not drawn),-11.4%,-9.3%
CCC(CC)C(=O)NCCc1ccc(OC)cc1,-17.9%,-9.2%
CN=C1c2ccccc2CN1c1cccc(C(=O)OC)c1,x,-12.4%
CNS(=O)(=O)c1ccc(NC(=O)c2nc3nc(C)cc(C(F)F)n3n2)cc1,5.1%,-3.5%
COc1cc(=O)[nH]c(SCC(=O)Nc2ccc3ccccc3c2)n1,-15.9%,-2.4%
O=C(O)c1cc(O)c2c(c1)C(=O)c1cc(O)cc(O)c1C2=O,-1.0%&5.7%,14.9%&8.3%
CNC(=O)Nc1cc(C(F)(F)F)cc(C(F)(F)F)c1,u,-13.7%
O=C(Cn1ncc2c([nH]c3ccccc32)c1=O)NCCCN1CCN(c2ccccc2)CC1,3.6%[7.34 µM],0.5%[7.34 µM]
CCNC(=O)C1(C)CCN(C(=O)c2ccc(C)c(F)c2)C1 (stereo not drawn),i,-5.6%
C=CCC[C@@H](Cc1ccc(F)cc1)C(=O)OC[C@H](C)NC(=O)[C@@H](CC=C)CC(=O)N[C@@H](CO)Cc1ccccc1,-6.7%,u
O=C(c1cc(-c2cccs2)nc2ccccc12)N1CCN(S(=O)(=O)c2cccc(F)c2)CC1,x,-23.1%
CCCCNC(=O)C(NC(=O)c1cnc(C)cn1)C(=O)c1ccccc1 (stereo not drawn),-15.8%,-9.2%
COCCCNC(=O)c1cccc2c(-c3ccnn3C)coc12,2.2%,-10.6%
Cc1ccc(O)c(NC(=O)c2noc3c2CCCCC3)c1,-10.8%&-21.2%,-5.4%&-15.4%
CN1/C(=C/C(=O)C2CC2)C(C)(C)c2ccccc21,-1.8%,-22.6%
# Remaining list, next part.
SMILES,VACV mCherry inh,VACV Venus inh
COc1ccc(-c2ccc(C(=O)Nc3ccc(NC(C)=O)cc3)c3occc23)c(C)c1,0.5%,-0.8%
Brc1ccc2nc(N3CCCC3)sc2c1,i,-18.1%
CCN(CC)CCCNC(=O)CSc1nc2c(c(C(F)(F)F)n1)CCc1ccccc1-2,-19.5%,-21.4%
Cn1cccc1CC(=O)N/N=C/c1cccc([N+](=O)[O-])c1,i,1.6%
COc1ccc(NC(=O)CSc2nc(O)cc(=O)n2C)cc1,x,-10.3%
CCN(CC)S(=O)(=O)c1cccc(C(=O)N[C@H](C(=O)OCC(N)=O)C(C)C)c1,-10.3%,-3.5%
Cc1nn2c(=O)cc(COC(=O)c3ccc(NC(=O)c4cccs4)cc3)nc2s1,u,u
COCCn1nnnc1C(c1cc2ccc(OC)cc2[nH]c1=O)N1CCN(C2CCCCC2)CC1 (stereo not drawn),-14.0%,-4.7%
Fc1ccccc1Nc1nc(-c2ccncc2)nc2ccccc12,-7.1%,-23.0%
COc1ccc(NC(=O)c2cc(C3CCCCN3S(=O)(=O)Cc3ccccc3)on2)c(C)c1 (stereo not drawn),9.8%,-10.6%
Cc1cccc(C(=O)OC(C)C(=O)NCC2CCCCC2)c1O (stereo not drawn),-14.5%,-6.2%
COc1ccc(C(=O)Cn2c(C(C)=O)nc3ccccc32)cc1,i,-20.9%
CC1(C)CC2CC(C)(CN2C(=O)Cc2ccccc2)C1 (stereo not drawn),-15.9%,u
Cc1ccc(N=CC2=C(O)CC(C)(C)CC2=O)nc1,x,-15.4%
O=C(NNc1c(Cl)cc(Cl)cc1Cl)c1cccc([N+](=O)[O-])c1,-28.3%,-7.2%
O=C(NNC(=S)NC(=O)c1ccccc1[N+](=O)[O-])c1ccc(Cl)cc1Cl,-23.0%,-5.6%
COc1cc(C)ccc1NC(=O)Cc1csc(NC(=O)Nc2ccccc2OC)n1,-5.2%,-3.9%
OC(CN1CCN(Cc2ccc3c(c2)OCO3)CC1)c1c[nH]c2ccccc12 (stereo not drawn),-9.9%,-13.1%
Cc1ccc(S(=O)(=O)N(CC(=O)N=Nc2c(O)[nH]c3ccccc23)c2ccc(C)c(C)c2)cc1,-24.8%,u
O=[N+]([O-])c1cc([N+](=O)[O-])c(Oc2c(Cl)cccc2Cl)cc1NN1CCCCC1,-3.4%,-12.1%
Cc1ccc2sc(N(Cc3cccnc3)C(=O)C3COc4ccccc4O3)nc2c1C (stereo not drawn),i,-5.2%
COCCNC(=O)c1ccc(CSc2nc3ccccc3s2)cc1,i,-13.8%
O=C1N[C@@H](Cc2ccccc2)COC(=O)[C@H](Cc2ccc(F)cc2)CC/C=C/C[C@@H]1CC(=O)N(CCO)Cc1ccccc1,u,u
COc1ccc(N2CCN(C(=O)c3cccn4c(=O)c5ccccc5nc34)CC2)cc1,-1.6%,-14.3%
CC(C)NC(=O)C1CCN(C2CCN(Cc3nc(C(C)C)cs3)CC2)CC1,-9.7%,-5.7%

# One compound at a time (already shown).
# Profile of OC(CN1CCN(Cc2ccc3c(c2)OCO3)CC1)c1c[nH]c2ccccc12 (stereo not drawn) → VACV mCherry inh = -9.9%; VACV Venus inh = -13.1%
# Profile of Cc1ccc2sc(N(Cc3cccnc3)C(=O)C3COc4ccccc4O3)nc2c1C (stereo not drawn) → VACV mCherry inh = i; VACV Venus inh = -5.2%
# Profile of Cc1ccc(S(=O)(=O)N(CC(=O)N=Nc2c(O)[nH]c3ccccc23)c2ccc(C)c(C)c2)cc1 → VACV mCherry inh = -24.8%; VACV Venus inh = u

# Among those listed so far, three contain a furan ring, fused or not:
SMILES,VACV mCherry inh,VACV Venus inh
COC(=O)c1cc2oc3ccccc3c2n1CC(=O)Nc1ccc(C)c(F)c1,-16.4%,-12.5%
COCCCNC(=O)c1cccc2c(-c3ccnn3C)coc12,2.2%,-10.6%
COc1ccc(-c2ccc(C(=O)Nc3ccc(NC(C)=O)cc3)c3occc23)c(C)c1,0.5%,-0.8%

# (next part)
SMILES,VACV mCherry inh,VACV Venus inh
COc1cccc(C(=O)NCC(c2cccs2)N2CCOCC2)c1 (stereo not drawn),i,-7.9%
COc1cccc(CNC2CCCCCCC2)c1OC,-0.1%,-3.3%
O=C(CN1CCOCC1)N/N=C/c1ccc(-c2ccc(Br)cc2)o1,-6.5%,-6.0%
O=C(c1ccc(S(=O)(=O)N2CCCCC2)cc1)N1CCN(c2ccccc2F)CC1,-18.3%,-20.3%
O=C(Nc1ccc2c(c1)CCC2)c1cc(F)cc(F)c1,-0.3%,-14.9%
Cc1cccc(CCNC(=O)c2cnc3c(C)cccn3c2=O)c1,-10.6%,2.9%
COC(=O)c1cccc(C23CC4(C2)[C@H](CN(Cc2cccnc2)[C@@H]4c2ccccc2)C3c2ccccc2)c1 (stereo partly drawn),-16.9%,u
CCOc1ccc(-n2c(SCC(=O)Nc3ccc(OC)cc3)nc3c(c2=O)SCC3)cc1,x,-24.4%
CCc1ccccc1NC(=O)c1cc2sc(Cl)cc2n1CC,-5.6%,-3.6%
O=C(OCC(=O)N1CCOCC1)c1ccc2c(c1)OCCO2,-4.2%,-1.5%
C=CC[C@@H](CC/C=C/C=C/CC/C=C\[C@@H]1CSC([C@@H]2C[C@@H]2C)=N1)OC,u,-5.0%
COc1cc2ccccc2cc1C(=O)Nc1ccc2oc(-c3ccc(F)cc3Cl)nc2c1,-27.9%,u
COC(=O)C1C(=O)c2c([nH]c(C(=O)OC3CCCCCC3)c2C)CC1C (stereo not drawn),0.3%,-7.1%
C=CCNC(=O)CN(c1ccc(F)c(Cl)c1)S(C)(=O)=O,-3.6%,-6.1%
CCC(C)NC(=O)CN1C(=O)C(CC)Sc2ccccc21 (stereo not drawn),-13.0%,1.0%
OC[C@@H]1CN(Cc2ccc(Cl)cc2)C[C@H](n2cnc3c(NC4CC4)ncnc32)O1,-3.6%,2.8%
O=C(Cn1ncc2c(=O)oc3ccccc3c21)NCCN1CCN(c2ccccc2F)CC1,12.2%,-6.9%
CN(Cc1ccccc1)S(=O)(=O)c1nnc(NC(=O)c2ccc(F)cc2)s1,-14.0%,-1.8%
CC(=O)C1=C(c2ccccc2)OC(N)=C(C#N)C1c1ccccc1F (stereo not drawn),-16.6%,-0.3%
O=C(NCc1cccnc1)C(=O)Nc1cc2c3c(c1)CC(=O)N3CCC2,-13.8%,-7.2%
CCc1ccc(-c2cc(C)no2)cc1S(=O)(=O)Nc1cc(C)ccn1,-19.0%,-2.5%
CC(C)CCN(C(=S)Nc1cccc(F)c1)C1CCN(C(C)C)CC1,-22.0%,-22.1%
Cc1cc(NC(=O)C(C)SCC(=O)Nc2ccccc2C(C)(C)C)no1 (stereo not drawn),i,-16.2%
CCC1(CC)Cc2ccccc2C(C2=C(O)CC(C)(C)CC2=O)=N1,-16.4%,-6.6%
COC(=O)CNc1nc(Cl)nc(Nc2ccc(Cl)cc2)n1,0.7%,0.6%
# Going on with the list.
SMILES,VACV mCherry inh,VACV Venus inh
Cc1ccc(CN2CCCN(CC(=O)Nc3ccc(C)cc3C)S2(=O)=O)cc1,-9.8%,3.6%
CNC(=O)COC(=O)/C=C/c1cccc(F)c1,-13.8%,-1.5%
CCc1cc2c(cc3c(=O)n(CC(=O)NCCOC)nc(CC)n32)s1,-19.0%,-11.3%
COc1ccc(/C=C/c2ccc3ccccc3n2)c(OC)c1,-19.3%,-13.6%
O=c1[nH]c2ccccc2n1C1CCN(Cc2ccc(-c3nc4ccccc4nc3-c3ccccc3)cc2)CC1,u,u
Cc1cc(C(F)(F)F)nn1Cc1n[nH]c(=S)n1-c1cccc(Cl)c1,-17.8%,0.6%
CC(C)c1nnc(NC(=O)CCC(=O)Nc2ccc3cn[nH]c3c2)s1,-4.8%,-5.8%
Cc1ccc(Cn2c(=O)n(Cc3ccccc3Cl)c(=O)c3ccccc32)cc1,0.4%,0.8%
COc1ccc(Cc2c(C)nn(-c3nc(C)c(C(=O)Nc4ccc(C)cc4C)s3)c2C)cc1,-0.9%,-14.7%
O=C1NC[C@H](CCCCN2C[C@H](Cc3ccccc3)N(Cc3ccccc3)C(=O)C2=O)N(CCC2CCCCC2)C1=O,6.7%,-16.4%
O=C(Cc1nc2ccccc2[nH]1)c1ccc(Br)cc1,u,1.4%
Cc1cccc(N(Cc2cc3ccccc3[nH]c2=O)C(=O)c2cccc(Cl)c2)c1,-16.2%,-15.4%
CCC(=O)N1CCc2cc(S(=O)(=O)CCC(=O)N3CCN(c4ccccc4F)CC3)ccc21,9.1%,-1.0%
Cc1ccc(C)c(S(=O)(=O)N2CCCOC2CNC(=O)C(=O)NCCN2CCOCC2)c1 (stereo not drawn),-1.2%,-16.6%
O=S1(=O)CC(N2CCC(Cc3ccccc3)CC2)CN1C1CCCC1 (stereo not drawn),i,-10.7%
Cc1ccc(S(=O)(=O)Nc2nnc(C3CCCCC3)s2)cc1,-2.4%,-8.7%
COc1ccccc1N1C(=S)NC2CS(=O)(=O)CC21 (stereo not drawn),i,-5.4%
COc1cccc(CN(C(=O)COc2ccc(C)cc2)C2CCS(=O)(=O)C2)c1 (stereo not drawn),-0.3%,-14.1%
CC(C)(C)C(=O)NC1(C(F)(F)F)NC(=O)N(CCc2ccccc2)C1=O (stereo not drawn),-5.4%,-10.0%
O=C(O)C1C2CCC(O2)C1C(=O)NCc1ccccc1Br (stereo not drawn),-20.2%,-4.8%
C=C1CCN([C@@H](CC(C)C)C(=O)NCc2ccccc2)S(=O)(=O)c2ccccc21,-9.0%,-8.9%
COc1cc(/C=C2/NC(=O)N(CC(=O)Nc3cccc(C)c3)C2=O)ccc1OCC(N)=O,-0.8%,-8.1%
CN(c1ccccc1)S(=O)(=O)c1cccc(NC(=O)COc2cccc([N+](=O)[O-])c2)c1,-14.5%,-5.9%
O=[N+]([O-])c1ccc(O)c(/C=N/Nc2ccccc2Cl)c1,-13.4%,-20.5%
COc1ccccc1C1CC(=O)Nc2c1c(=O)n(C)c(=O)n2C (stereo not drawn),i,-3.5%
Cn1c(=O)c2nc(NCc3ccccc3)cnc2n(C)c1=O,-14.6%,-11.1%
Cc1ccc(Cl)cc1NC(=O)c1sc2nc(C)c(C)c(C)c2c1N,-0.3%,-1.2%
Clc1ccccc1CSc1cc2c(nn1)-c1ccccc1CC2,-15.7%,-12.7%
